# Mtb H37Rv – M. tuberculosis H37Rv growth inhibitors, H37Rv strain (AID 1626) | M. tuberculosis H37Rv growth inhibition; higher % means a stronger effect | one-dose inhibition, % at 10 µM; IC50 in µM for titrated hits | actives 0.95% (n = 220,000);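 active = confirmed in a dose series; inconclusive = inhibition above 80% but not taken into the dose series; inactive = below 80% or under 30% at every dose of the series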;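 note: bacteria incubated seven days before Alamar blue readout; 0% = bacteria only wells and 100% = bacteria with antibiotic wells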
# Arbovirus anti – antivirals against arbovirus infection; arbovirus infection cell-based antiviral screen; inhibition, % at 10 µM; actives 0.37% (n = 200,000);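 active = inhibition from about 30%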;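 note: bluetongue infection of BSR cells; cell survival read as ATP light after 72 h; 0% = infected wells without compound and 100% = uninfected wells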
# YopH PTP inh – blocks Yersinia enterocolitica YopH tyrosine phosphatase | fluorescence Ex485/Em525 | inhibition, %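 (about 10 µM by stock and volumes)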 | actives 0.16% (n = 140,000);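 active = inhibition of 50% or more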;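 note: controls were vehicle for no effect and minimum signal wells for full effect; inactives centre near -20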
# Mtb betalactam – beta-lactam sensitization of Mtb H37Rv. M. tuberculosis H37Rv growth with meropenem, percent inhibition; hits of this screen are not shown here. inhibition, % at 25 µM. actives 0.27% (n = 330,000). AID 434955;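 active = about 74% or more and at least 40 points above the plate without the antibiotic, then above 30% in a dose series; inconclusive = first-round hits that could not be retested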;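 note: growth measured after seven days incubation then overnight dye step; 0% = bacteria only wells and 100% = bacteria with antibiotic; twin plates without the antibiotic show which effects depend on it; some results filed as inactive read as strong as hits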
# RecA intein inh – inhibitors of M. tuberculosis RecA intein splicing; P9WHJ3; cell-free RecA intein splicing, fluorescence; inhibition, %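 (about 9 µM by stock and volumes)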; actives 0.75% (n = 290,000); in the data active = inhibition above about 30%; inconclusive = no clear call, values can overlap the other calls;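 note: 0% = vehicle wells and 100% = reference inhibitor control wells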
# Target sequence (P9WHJ3 whole entry, looked up): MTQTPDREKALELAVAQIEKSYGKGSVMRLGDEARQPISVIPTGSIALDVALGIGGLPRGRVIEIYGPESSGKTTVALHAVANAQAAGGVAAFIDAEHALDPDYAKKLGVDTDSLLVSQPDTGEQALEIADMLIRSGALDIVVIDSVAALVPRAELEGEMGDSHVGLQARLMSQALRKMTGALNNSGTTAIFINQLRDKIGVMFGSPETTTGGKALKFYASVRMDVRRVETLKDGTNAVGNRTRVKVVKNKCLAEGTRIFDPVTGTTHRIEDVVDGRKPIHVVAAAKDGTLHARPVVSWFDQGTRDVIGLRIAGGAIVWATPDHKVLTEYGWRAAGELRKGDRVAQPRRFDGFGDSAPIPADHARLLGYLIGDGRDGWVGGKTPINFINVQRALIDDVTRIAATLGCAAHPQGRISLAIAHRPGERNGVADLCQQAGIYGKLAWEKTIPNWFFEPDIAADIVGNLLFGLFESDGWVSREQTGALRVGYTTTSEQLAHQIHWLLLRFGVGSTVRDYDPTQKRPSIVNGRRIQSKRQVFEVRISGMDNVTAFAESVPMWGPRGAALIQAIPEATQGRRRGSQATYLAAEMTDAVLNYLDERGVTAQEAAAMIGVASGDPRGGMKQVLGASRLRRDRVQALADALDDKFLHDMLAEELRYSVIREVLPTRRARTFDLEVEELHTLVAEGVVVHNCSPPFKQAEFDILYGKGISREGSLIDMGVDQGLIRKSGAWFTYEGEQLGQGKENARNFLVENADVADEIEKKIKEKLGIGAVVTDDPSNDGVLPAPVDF
# Arbovirus anti repeat – also measured in Arbovirus anti; calls as there; inhibition, %; measured here: 10K subset replicate screen; many hits read low in the repeat;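 first of two repeat runs on a subset; 0% = infected and 100% = uninfected wells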
# Numbers without * were called inactive; ? = inconclusive; . = no result given. Some of the compounds tested; count on the stated rates, not on these rows.
SMILES,Mtb H37Rv,Arbovirus anti,YopH PTP inh,Mtb betalactam,RecA intein inh,others
O=C1C2C(c3ccccc3)C=CC(c3ccccc3)C2C(=O)N1c1ccncc1 (centres undefined),4%,0,-25,8,4.5,
Cc1ccccc1N1CC(C(=O)Nc2nnc(SCCC3OCCO3)s2)CC1=O (centres undefined),.,.,.,6,-0.4,
CCOC(=O)c1c(NC(=O)COC(=O)Cc2ccccc2[N+](=O)[O-])sc(C(=O)N(C)C)c1C,.,.,.,-1,1.7,
O=C1c2ccccc2C(Nc2ccc(Cl)cc2)N1CCN1CCOCC1 (centres undefined),2%,9,-26,-1,-6.4,
Cc1ccc(N2CC(C(=O)Nc3cc(C)on3)CC2=O)cc1 (centres undefined),-3%,3,-43,6,-0.1,
COc1ccc(S(=O)(=O)N2CCOC23CCN(S(=O)(=O)c2c(C)cc(C)cc2C)CC3)cc1,.,.,.,-15,3.7,
COc1ccc(CNC(=O)C(=O)NCC2OCCN2S(=O)(=O)c2ccccc2)cc1 (centres undefined),.,.,.,-4,2.0,
CCc1nc2ccc(C(=O)N3CCN(c4cccc(C)c4C)CC3)cc2nc1CC,.,.,.,95,5.7,
COc1ccc(-c2csc(NC(=O)CSc3nnnn3C)n2)c(OC)c1,.,.,.,-4,-1.6,
CCOC(=O)C1CCN(C(=O)COc2ccc(N(C)S(=O)(=O)c3ccc(OCC)cc3)cc2)CC1,5%,2,.,-11,1.8,
S=C(NC1CCCCC1)N1CCN(Cc2ccccc2Cl)CC1,-5%,0,.,0,.,
COC(=O)c1ccc(N=CC2=C(O)CC(c3ccccc3)CC2=O)cc1 (centres undefined),?,.,.,77,-1.6,
CC(OC(=O)CCC1CCCCC1)C(=O)Nc1ccc(S(N)(=O)=O)cc1 (centres undefined),.,.,.,-12,-0.3,
COC(=O)c1cc(C(=O)NC(C)C2CC3CCC2C3)cc([N+](=O)[O-])c1 (centres undefined),.,.,.,5,-2.1,
CC(C)c1nnc(NC(=O)C2CCCN2C(=O)Nc2ccccc2F)s1 (centres undefined),4%,7,.,-3,0.1,
COc1ccc2c(c1)c(C(=O)C(C)N1CCCCC1)c(C)n2C (centres undefined),.,.,.,-5,-0.9,
CCc1nnc(NC(=O)c2ccc(S(=O)(=O)N(C)Cc3ccccc3)cc2)o1,.,.,.,85,-0.7,
O=C(C(Cc1ccccc1)N1C(=O)c2ccccc2C1=O)N1CCc2ccccc21 (centres undefined),-9%,4,-13,-5,-3.0,
Cc1ccc(C(=O)NC(N2CCCC2)C(Cl)(Cl)Cl)cc1 (centres undefined),-10%,7,0,-2,0.8,
Cc1ccccc1N1C(=O)C2ON(c3ccccc3)C(c3ccco3)C2C1=O (centres undefined),-2%,.,.,-3,.,

# Ordered by molar mass (largest number first): some entries from above.
SMILES,Mtb H37Rv,Arbovirus anti,YopH PTP inh,Mtb betalactam,RecA intein inh,others
CCc1nnc(NC(=O)c2ccc(S(=O)(=O)N(C)Cc3ccccc3)cc2)o1,.,.,.,85,-0.7,
CC(C)c1nnc(NC(=O)C2CCCN2C(=O)Nc2ccccc2F)s1 (centres undefined),4%,7,.,-3,0.1,
S=C(NC1CCCCC1)N1CCN(Cc2ccccc2Cl)CC1,-5%,0,.,0,.,
COC(=O)c1ccc(N=CC2=C(O)CC(c3ccccc3)CC2=O)cc1 (centres undefined),?,.,.,77,-1.6,
Cc1ccc(C(=O)NC(N2CCCC2)C(Cl)(Cl)Cl)cc1 (centres undefined),-10%,7,0,-2,0.8,

# The list continues:
SMILES,Mtb H37Rv,Arbovirus anti,YopH PTP inh,Mtb betalactam,RecA intein inh,others
CCC(=O)Nc1cc(C(=O)OC(C(=O)c2ccc(C)c(C)c2)c2ccccc2)ccc1C (centres undefined),1%,-1,-33,9,-2.7,
COC(=O)CCC/C=C1/SCC(NC(=O)c2ccccc2)/C1=N/O (centres undefined),-1%,4,.,0,0.0,
O=C(NCCN1C(=O)S/C(=C\c2cccs2)C1=O)c1ccc(=O)[nH]c1,6%,8,0,-3,-1.5,
COc1ccc(OC)c(NC(=O)CSc2ccc3ccccc3c2)c1,8%,28,3,74,4.6,
O=C(CSc1nnc(Cn2nnc3ccccc32)o1)Nc1cccc(Cl)c1,-5%,4,26,2,1.5,
Cc1cc(NCCO)c2ccccc2n1,.,-2,-26,-6,-0.1,
Cc1nc2nc[nH]n2c(=O)c1NC(=O)c1cccc(OCC(C)C)c1,-9%,2,-19,-6,0.1,
CCn1c(SCC(=O)Nc2ccccc2C)nnc1-c1ccccc1O,-1%,0,-9,-13,0.5,
CC1(C)C2CCC1(C(=O)O)c1nc3ccccc3nc12 (centres undefined),-12%,-6,.,4,1.0,
O=C(Nc1ccc([N+](=O)[O-])cc1)C1CC12CCC2 (centres undefined),4%,14,.,2,1.5,
CO/N=C/C(=N\Nc1ccc(OC)cc1)C(=O)c1ccc(F)cc1,4%,-13,.,7,-3.9,
Cc1c(CN2CCCC(C(=O)c3cccc(Cl)c3)C2)c(=O)n(-c2ccccc2)n1C (centres undefined),-1%,-14,.,-10,.,
COc1ccccc1-c1nnc(NC(=O)c2ccc(S(=O)(=O)N(C)CC3CCCO3)cc2)o1 (centres undefined),.,.,.,?,0.1,
CCCC(=O)Nc1ccc(Sc2ccc([N+](=O)[O-])cc2)cc1,9%,6,-2,49,6.4,
COc1ccccc1CC(=O)Nc1ccccc1O,4%,-6,-19,-4,0.9,
CCCN1CCN(CCCNC(=O)C2CCCN(c3nnc(-n4cccc4)s3)C2)CC1 (centres undefined),-5%,12,-35,-2,0.1,
Cn1nnc(NC(=O)CSc2nnnn2-c2ccc(F)cc2)n1,-5%,10,-23,10,-2.8,
CC(=O)NC(CC(C)C)C(=O)NC(=O)NCc1ccccc1 (centres undefined),2%,1,-26,-8,0.9,
CC1CCN(C(=O)C2CC(c3ccc(F)cc3)=NO2)CC1 (centres undefined),-2%,1,-3,.,2.3,
CC(=O)Cn1nnc2sc3c(c2c1=O)CCC(C(C)(C)C)C3 (centres undefined),5%,10,.,11,1.1,
COc1ccc(-c2c(C)oc3c(CN4CCN(C)CC4)c(O)ccc3c2=O)cc1,-1%,0,-30,-3,-3.4,Arbovirus anti repeat=3
CCNc1nc(NC(C)C)nc(NC(C)(C)C)n1,4%,25,.,-5,13,
CCOc1ccccc1C(=O)OCC(=O)Nc1ccc(OC(F)F)cc1,-10%,-8,-3,10,-5.9,
COc1ccc(C2NCCc3[nH]cnc32)cc1 (centres undefined),-2%,-3,.,2,0.6,
CCOC(=O)c1sc(=S)n(CC)c1NC(=O)c1ccccc1C,2%,.,.,3,-9.6,
CC(=O)Nc1ccc(S(=O)(=O)Nc2ccc3c(c2)n(C)c(=O)n3C)c(C)c1,.,.,.,-1,-4.5,
COc1cccc(C(=O)COc2ccc(NC(=O)c3cccs3)cc2)c1,.,.,.,7,-1.0,
COc1ccccc1-c1c(C)nn2c(N)c(-c3ccccc3)cnc12,.,.,.,-1,2.7,
COc1ccccc1NS(=O)(=O)c1ccc2c(c1)N(C(C)=O)CC(C)S2 (centres undefined),.,.,.,-4,4.6,
Cc1ccc(NC(=O)Cn2nc(C)c(S(=O)(=O)N(C)C)c2C)cc1C,1%,9,.,-15,-3.6,
CCN1C(=O)/C(=C/c2nc3ccccc3c(=O)n2-c2ccc(C)cc2)c2ccccc21,5%,13,-29,-2,0.7,
Cc1cc(C(=O)OCc2nnc(-c3ccccc3)o2)c(C)n1-c1ccccc1,-7%,10,-30,70,14,Arbovirus anti repeat=5
O=C(Cc1nc(-c2ccc(Br)s2)cs1)NCCN1CCOCC1,-1%,8,-24,4,6.8,
CN1CCC(=O)N(CCN=[N+]=[N-])CC1,.,.,.,64,-1.8,
CCOC(=O)C1CCCN(CC(O)COCc2ccccc2OC)C1 (centres undefined),.,.,.,-5,-1.0,
Cc1cc(NC(=O)c2ccco2)ccc1-n1cnnn1,-2%,0,-57,-8,.,
CCn1c2ccccc2c2c3ncc4cccn4c3ccc21,-7%,.,.,3,-14,
COc1ccc(N2CCN(CC(=O)N3CCC(C)CC3)CC2)cc1,-3%,10,-32,-5,-2.0,
Cc1nc(N2CCCCC2)sc1C=O,40%,6,.,11,.,
Cc1ccc(C(=O)ONC(=O)c2ccc(Cl)cc2)cc1[N+](=O)[O-],.,.,.,-5,1.9,
O=[N+]([O-])c1cc(Cl)c(O)c(-[n+]2c(-c3ccccc3)cc(-c3ccccc3)cc2-c2ccccc2)c1,.,.,.,100,15,
Cc1cccc(Nc2n[nH]c(=S)s2)c1C,1%,-2,-34,3,-4.8,
Cn1c(CSc2nc3ccccc3s2)n[nH]c1=S,0%,10,-33,-8,0.0,Arbovirus anti repeat=3
COc1ccc(CNC(=O)c2ccc(Cn3cc(Br)cn3)o2)cc1,.,.,.,-5,1.7,
COc1ccc(CNCc2cccc(Oc3ccccc3)c2)cc1,7%,23,.,-7,3.3,
Cc1cc(N)nc(SCC(=O)N2C(C)CCCC2C)n1 (centres undefined),.,.,.,-3,5.3,
CC1CCC2(CC1)N=C(N)Nc1nc3ccccc3n12 (centres undefined),-4%,8,3,4,-0.1,
S=C(NCCc1ccccc1)Nc1ccccc1N1CCOCC1,1%,5,.,2,-2.9,
CCCn1c(SCC(=O)Nc2cc(S(=O)(=O)N3CCOCC3)ccc2Cl)n[nH]c1=O,-5%,8,-24,3,1.5,
Cc1nn2c(-c3ccco3)nnc2c2ccccc12,-13%,-5,-9,-11,-0.3,

# Continued (2 carried over from the part before).
SMILES,Mtb H37Rv,Arbovirus anti,YopH PTP inh,Mtb betalactam,RecA intein inh,others
CCCn1c(SCC(=O)Nc2cc(S(=O)(=O)N3CCOCC3)ccc2Cl)n[nH]c1=O,-5%,8,-24,3,1.5,
Cc1nn2c(-c3ccco3)nnc2c2ccccc12,-13%,-5,-9,-11,-0.3,
C[C@H]([C@H](O)c1ccccc1)N(C)C(=O)CN,.,.,.,-11,0.2,
O=C(Nc1ccccc1)C1=C[C@@H](c2ccccc2)C[C@@H](OCc2ccc(CO)cc2)O1,-6%,-12,.,70,11,
O=c1c2ccccc2nc2c3ccccc3c(NCCN3CCOCC3)nn12,-12%,-32,-15,-7,-1.0,
CCc1ccc(C(=O)NNC(=O)OC)cc1,-8%,2,.,-2,1.9,
CCOC(=O)c1ccc(COC(=O)c2cc3ccccc3oc2=O)o1,5%,-1,-26,5,.,
CCC(=NCCCn1ccnc1)c1c(O)n(Cc2ccccc2)c(=O)[nH]c1=O,-3%,5,-8,-24,2.1,
O=C(Cc1nnc(NC(=O)Nc2ccc(Cl)cc2)s1)NCc1ccccc1,-1%,-6,-31,-1,-1.1,
COC(=O)c1ccc(/C=C2/SC(=S)N(CCCC(=O)Nc3ccccn3)C2=O)cc1,2%,8,-21,35,0.4,
Cc1cc(NS(=O)(=O)c2ccc(NC(=O)CCCOc3ccccc3C)cc2)no1,.,.,.,-3,-0.6,
Cc1cc(C)c2c(N)c(C(=O)Nc3cccc(C)c3C)sc2n1,.,.,.,4,-8.9,

# Brought forward from above: 3 entries; new compounds follow.
SMILES,Mtb H37Rv,Arbovirus anti,YopH PTP inh,Mtb betalactam,RecA intein inh,others
COC(=O)c1ccc(/C=C2/SC(=S)N(CCCC(=O)Nc3ccccn3)C2=O)cc1,2%,8,-21,35,0.4,
Cc1cc(NS(=O)(=O)c2ccc(NC(=O)CCCOc3ccccc3C)cc2)no1,.,.,.,-3,-0.6,
Cc1cc(C)c2c(N)c(C(=O)Nc3cccc(C)c3C)sc2n1,.,.,.,4,-8.9,
O=C(Nc1ccc(Cl)cc1)Nc1ccon1,.,.,.,-2,-1.7,
Cc1ccc(Nc2nc(N/N=C/c3c[nH]c4ccccc34)nc(N3CCOCC3)n2)cc1,?,-42,-15,71,-3.5,
O=C(OC1CCOC1=O)c1cc(-c2ccc(Cl)cc2)nc2ccccc12 (centres undefined),3%,16,29,8,-1.4,
CCN(CC)C(=N)N1c2ccccc2CCC1C (centres undefined),-3%,17,.,2,-10,
COc1ccc(C(=O)Nc2ccccc2C(=O)NCc2cccnc2)cc1,.,.,.,?,2.6,
CCSc1nnc(NC(=O)CCCOc2ccc(C)cc2)s1,0%,12,.,7,1.4,
Cc1ccc(S(=O)(=O)N(CC(=O)Nc2ccccc2C(=O)O)c2cccc(Cl)c2C)cc1,5%,-4,-11,-2,9.8,
CCN(CC)c1ccc(C(=O)OCC(=O)NC(C)(C)C)cc1,.,.,.,-4,-0.4,
O=C(c1cc(-c2ccc(Cl)cc2)nc2ccccc12)N1CCOCC1,.,.,.,8,0.8,
C=C(C)C(=O)Nc1cccc(C2=NOC3(C2)C[C@@H](C(N)=O)N(C(=O)c2cc([N+](=O)[O-])cc([N+](=O)[O-])c2C)C3)c1 (some centres undefined),-3%,.,.,-1,-2.3,
CCOC(=O)c1ccccc1NC(=O)N[C@@H](C)C(=O)OC,-2%,8,-23,-13,-1.1,

# From PubChem
